# Screening results deposited in PubChem by several laboratories.
# UUG fidelity – alters start codon recognition fidelity in yeast. S. cerevisiae UUG-firefly luciferase reporter, luminescence/redox ratio. 350,000 tested, 0.13% active. activity score, % at 18.7 µM;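 active = replicate mean at a twofold rise or more, about +100% in these data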;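 also: firefly luciferase made from a UUG start codon reports start codon fidelity; reporter light over untreated wells divided by growth signal over untreated wells; some hits fall short of that in this replicate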
# Rce1 inhib – yeast Ras-converting enzyme inhibition | Q03530 | yeast membranes, quenched prenylated peptide cleavage fluorescence | calls only | 290,000 tested, 0.27% active;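 active = fall in fluorescence gain of 50% or more versus controls, with final raw signal at or below 3038400; inconclusive = same 50% fall but final raw signal above 3038400; inactive = fall in fluorescence gain under 50%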;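 also: plate controls were neutral control wells for no effect and wells lacking membranes for full effect; tested at 10 µM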
# Target sequence (Q03530 whole entry, looked up): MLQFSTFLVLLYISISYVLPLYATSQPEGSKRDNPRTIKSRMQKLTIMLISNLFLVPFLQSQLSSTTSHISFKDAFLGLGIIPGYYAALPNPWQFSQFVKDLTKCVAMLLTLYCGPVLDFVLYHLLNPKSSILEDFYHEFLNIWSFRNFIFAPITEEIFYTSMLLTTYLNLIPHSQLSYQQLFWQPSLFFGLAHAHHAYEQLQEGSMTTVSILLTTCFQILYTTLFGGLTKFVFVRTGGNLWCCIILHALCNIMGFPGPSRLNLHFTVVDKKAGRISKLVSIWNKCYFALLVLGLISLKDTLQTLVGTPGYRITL
# CSC inhib – blocks cancer stem cells | cancer stem cell-like cells viability, luminescence | inhibition, % at 7.5 µM | 300,000 tested, 1.1% active | AID 2717;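 active = mean at 75% or more and at least half the replicates too; inconclusive = mean and replicates disagree; tested in HMLE shEcad cells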;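 also: 0% = median of negative and 100% = median of positive control wells; the first replicate is given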
# PABP polyA inh – PABP-poly(A) binding inhibition | 290,000 tested, 1% active | P11940 | PABP-poly(A) RNA binding, fluorescence polarization | inhibition, % at 35 µM;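 active = 50% or more with normal probe brightness, or confirmed in later tests; inconclusive = above 50% with abnormal brightness, or retests that disagree; inactive = below 50% or failed in later tests; about a fifth of its hits are not listed in these tables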;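 also: calls also rest on retests at 20 µM and on dose response follow-up; controls were probe without protein and protein plus probe with vehicle; some compounds called inactive have numbers as strong as hits; many hits fall short of the cut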
# eIF4H inh – inhibitors of RNA binding by human eIF4H | Q15056 | eIF4H fluorescence polarization binding assay | inhibition, % at 35 µM | 290,000 tested, 0.94% active;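 active = 50% or more with normal probe brightness, or confirmed in later tests; inconclusive = above 50% with abnormal brightness, or retests that disagree; inactive = below 50% or failed in later tests; about a fifth of its hits are not listed in these tables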;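 also: calls also rest on retests at 20 µM and on dose response follow-up; 0% = protein and probe with vehicle and 100% = probe without protein; strong numbers were not always called active; many hits fall short of the cut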
# MT1-MMP act inh – blocks activation of human MT1-MMP | 360,000 tested, 0.061% active | P50281 | HT1080 RFP-PRO-GFP cells, GFP/RFP ratio fluorescence, overnight; percent of plate control window, DMSO zero | GFP/RFP ratio change, % at 20 µM;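 active = GFP/RFP ratio change of at least 30% with cell ATP level not reduced by more than half and red fluorescence within 50% of control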; also: strong numbers were not always called active
#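 Assay system: HT1080 RFP-PRO-GFP cells. Benchmarks: DMSO vehicle wells and RFP-L50D-GFP reporter cell wells. Times: overnight cell settling, then overnight compound exposure, 37 °C, 5% CO2. Compound: 20 µM single dose, 1% DMSO. Read-out basis: GFP/RFP fluorescence ratio.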
# HIV Env fusion – blocks HIV Env-driven cell-cell fusion; inhibition, % at 12.3 µM; 360,000 tested, 1.1% active; HeLa-JRFL Env/CEM21 cell fusion, luciferase;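 active = mean replicate inhibition score of at least 50 and every replicate individually at or above 50; inconclusive = only one of the two criteria met; inactive = mean below 50 and not all replicates reaching 50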;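 also: 0% = plate neutral controls and 100% = maraviroc near 300 nM; one replicate is shown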
# eIF4H inh retest – second read-out of eIF4H inh, no call of its own (marks repeat the call); inhibition, %; compound at 20 µM; confirmation average;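 mean of two retest wells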
# PABP polyA inh retest – also measured in PABP polyA inh; calls as there; inhibition, %; compound at 20 µM; confirmation repeats;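 mean of two retest wells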
# MT1-MMP act inh RFP – also measured in MT1-MMP act inh; calls as there; RFP signal change, %; measured here: RFP expression control read;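 0 = vehicle wells; hits needed this value within 50% of zero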
# * marks the source's active call; other numbers are inactive results; i = inactive; u = inconclusive; x = not tested or not shown; + = active, no number; & = joins results of further samples.
SMILES,UUG fidelity,Rce1 inhib,CSC inhib,PABP polyA inh,eIF4H inh,MT1-MMP act inh,MT1-MMP act inh RFP,HIV Env fusion,others
COC(=O)c1c(NC(=O)COC(=O)Cn2cnc3ccccc32)sc2c1CCCC2,-25,i,5,10,-9,2,1,-2,
O=C(O)Cc1ccc(-c2ccccc2-c2ccccc2)cc1,-13,i,-12,-4,5,-1,5,x,
COc1ccc(-c2cn3nc(SCC(=O)NCC4CCCO4)ccc3n2)cc1 (stereo unspecified),-34,i,6,7,1,-2,-1,-14,
COc1cc(OC)cc(-c2nnc(NC(=O)CCS(=O)(=O)c3ccccc3)o2)c1,-17,i,13,x,x,3,3,13,
C1=C(c2ccccc2)Nc2ncnn2C1c1ccccc1 (stereo unspecified),-17,i,-3,x,x,-9,-2,15,
CCC(=O)N1c2ccc(S(=O)(=O)CCC(=O)NC3CCCC3)cc2CC1C (stereo unspecified),-5,i,-7,12,13,-1,5,-9,
Cc1ccccc1S(=O)(=O)NC1=NCCCCC1,x,i,-30,4,3,4,4,-26,
O=C(CCC(=O)N(CC(=O)NC1CCCCC1)Cc1cccs1)Nc1ccccn1,x,i,-17,17,3,-5,-5,-50,
O=C(COC(=O)C12CC3CC(CC(C3)C1)C2)Nc1ccc([N+](=O)[O-])cc1Cl,-12,i,5,-4,-8,3,2,-7,
CCOc1cccc(/C=N/NC(=O)C2CCCC2)c1O,-5,i,-1,-4,-4,0,-7,29,
CCOc1ccc(NC(=O)Cn2nnc(C(=O)NCc3ccco3)c2N)cc1,-23,i,-9,-5,-4,-2,1,-52,
O=C(NCc1ccc(F)c(F)c1)C1CCC(=O)N(CCc2ccccc2)C1 (stereo unspecified),3,i,x,4,4,2,2,4,
COc1ccc(OCc2nnc(SCC(=O)NC3CCCCC3)o2)cc1,-21,i,x,0,2,4,0,4,
CC(=O)Nc1ccc(C(=O)CSc2cc(C)c3cccc(C)c3n2)cc1,-16,i,10,-6,-7,-4,-2,x,
Cc1sc2ncnc(OCC(=O)NC3CCS(=O)(=O)C3)c2c1C (stereo unspecified),-3,i,0,-2,-5,1,5,-8,

# Entries from the list above containing a halogen:
SMILES,UUG fidelity,Rce1 inhib,CSC inhib,PABP polyA inh,eIF4H inh,MT1-MMP act inh,MT1-MMP act inh RFP,HIV Env fusion,others
O=C(COC(=O)C12CC3CC(CC(C3)C1)C2)Nc1ccc([N+](=O)[O-])cc1Cl,-12,i,5,-4,-8,3,2,-7,
O=C(NCc1ccc(F)c(F)c1)C1CCC(=O)N(CCc2ccccc2)C1 (stereo unspecified),3,i,x,4,4,2,2,4,

# More compounds follow:
SMILES,UUG fidelity,Rce1 inhib,CSC inhib,PABP polyA inh,eIF4H inh,MT1-MMP act inh,MT1-MMP act inh RFP,HIV Env fusion,others
Oc1ccc(/C=N/n2cc(-c3ccccc3)[nH]c2=S)cc1,x,+,10,6,0,1,-5,21,
COc1ccc(/C(N)=N/OC(=O)c2c(-c3ccccc3Cl)noc2C)cc1OC,5,i,25,-5,5,-8,-15,-20,
Cc1ccccc1NC(=O)Nc1nc(C(N)c2ccccc2)cs1 (stereo unspecified),-7,x,x,x,x,0,-1,-6,
Cc1noc(C)c1COc1ccccc1C(=O)N(C)Cc1ccco1,-6,x,-1,x,x,-3,3,x,
OCc1cn(-c2ccccc2)nn1,x,i,-3,-8,-4,1,2,6,
O=S(=O)(Nc1ccccc1N1CCOCC1)c1ccc(F)c(Cl)c1,-7,i,18,-2,5,2,3,-27,
COc1ccc(/C=C/C(=O)c2cc(Cl)ccc2O)c(OC)c1,x,i,18,-3,1,1,-4,-7,
COCOCCn1cc(CN2CCS(=O)(=O)N(Cc3ccc(-c4cccc(CO)c4)cc3)C(C)C2=O)nn1 (stereo unspecified),-9,x,x,x,x,-3,0,1,
CC(=O)Nc1ccc(C(=O)NNC(=O)c2cc([N+](=O)[O-])cc([N+](=O)[O-])c2)cc1,x,i,-5,4,0,8,7,-6,
O=C1CC(c2ccc(O)cc2)Oc2cc(O)ccc21 (stereo unspecified),5,i,-7,x,x,-3,0,x,
O=c1[nH]cc(O)c(=O)[nH]1,-7,i,-15,-5,-2,6,4,x,
O=C(O)C(Cc1ccccc1)NS(=O)(=O)c1ccc2c(c1)OCCO2 (stereo unspecified),-15,i,-4,-3,-12,0,5,u,
Cc1noc(C)c1CSc1ncnc2sc3c(c12)CCC(C)C3 (stereo unspecified),x,i,55,-4,-8,x,x,x,
CCC(CC)NC(=O)CSc1nnc(-c2ccc(OC)cc2)n1C(C)C,-16,i,3,-7,-2,6,-5,-58,
CC(=O)Nc1ccc(S(=O)(=O)NNC(=O)COc2cc(C)ccc2C(C)C)cc1,4,i,1,-3,6,-3,2,x,
CC(C)(C)C(=O)O/N=C(\N)c1ccc(Br)cc1,x,i,-6,-3,10,0,2,13,
O=C1c2cccc(Sc3ccccc3)c2C(=O)c2c(Sc3ccccc3)cccc21,119*,i,-5,3,14,9,-3,13,
O=C(NCC(=O)N1CCCC(C(F)(F)F)C1)c1ccccc1Br (stereo unspecified),-7,i,19,x,x,-3,2,-16,
CCOC(=O)c1ccc2nc(C)c(C)nc2c1,x,i,5,0,-4,7,-2,4,
Clc1cnc(N/N=C/c2cccs2)c(Cl)c1,x,i,x,0,-10,-1,-4,x,
CC(O)[C@H]1CC[C@H]2[C@@H]3CC[C@H]4C[C@@H](O)CC[C@]4(C)[C@H]3C(=O)C[C@]12C (stereo partly specified),-2,i,7,x,x,2,-1,3,
c1ccc(OCCSc2nnnn2C2CCCCC2)cc1,x,i,8,0,-13,-5,0,x,
C[C@]12CCC(=O)C=C1CC[C@@H]1[C@@H]2[C@@H](O)C[C@@]2(C)[C@H]1CC[C@]2(O)C(=O)COC(=O)CCC(=O)O,-16&-4,i,-4&-7,-2,-6,1&-2,-2&3,i,
Cc1[nH]n(-c2ccccc2)c(=O)c1N=Nc1ccccc1C(=O)N1CCCCC1,-10,i,-4,-12,-2,1,-3,23,
CCNC(=S)N1C2CCC1CC(NC(=O)NC1CCCCC1)C2 (stereo unspecified),-20,i,-15,9,-2,4,-1,x,
O=C(c1cccs1)n1nc(-c2ccccc2)nc1NCc1ccc(F)cc1,x,x,-4,-2,-4,-4,-9,-4,
Cc1ccc(/C=c2\sc3n(c2=O)CN(c2ccc(Br)cc2)CN=3)o1,3,i,43,22,2,-14,3,-78,
Cc1cc(C)n(C(=O)Cn2nc(C)c(Cl)c2C)n1,-18,i,-4,-10,-4,-1,2,-4,
Cc1[nH]c2ccccc2c1SCC(=O)N1CCCCCC1,x,i,0,-17,-1,-4,-1,2,
COc1ccccc1NC(=O)C1CCCN(S(=O)(=O)c2cnc[nH]2)C1 (stereo unspecified),7,i,12,6,-4,-4,1,2,
CS(=O)(=O)N1CCN(c2ccc(Cl)cc2[N+](=O)[O-])CC1,-4,i,x,5,-2,2,3,7,
C=C(C)CSc1nc2c(c(=O)[nH]c(=O)n2C)n1Cc1ccccc1,3,i,10,5,-10,-2,-13,-1,
CCOC(=O)c1c(NC(=O)/C=C/c2ccco2)sc(C)c1C,-18,i,2,-4,-2,1,0,-9,
CCOc1ccc(OCCC(=O)OCC(=O)NCc2ccccc2)cc1,-16,i,x,-2,4,0,3,4,
O=C(Nc1cccc(C(=O)N2CCN(c3ccc(F)cc3)CC2)c1)c1ccccc1,x,i,-4,-2,-3,0,1,18,
Cc1cc(Cl)ccc1Oc1ncc(-c2ccc(Cl)cc2)cn1,x,i,6,17,54,-5,-8,x,eIF4H inh retest=-2;PABP polyA inh retest=5
CCCCn1c(SCC(=O)OC)nc2c1c(=O)n(C)c(=O)n2C,11,i,-5,3,-5,4,2,-82,
OCCNc1nc(NCc2ccccc2)c2ccccc2n1,155*,i,-12,-1,0,13,-6,-9,
Cc1ccn2cc(CNS(=O)(=O)c3ccc(Cl)s3)nc2c1,-16,i,-2,8,26,2,0,18,
CC(=O)Nc1ccc(S(=O)(=O)N2CCN(Cc3cccnc3)CC2)cc1,-12,i,-11,24,3,-1,2,x,
COCCNc1nc(NCCOc2ccccc2Cl)c2sccc2n1,0,x,x,x,x,4,-10,11,
CCC(C)(c1ccc(C(=O)OC)s1)c1ccc(C(=O)OC)s1,-11,i,-9,12,7,1,-3,18,
COC(=O)Nc1ccc(S(=O)(=O)N(C)CC(F)(F)C(F)F)cc1,x,i,4,4,1,2,4,-2,
CCC(C(=O)N1CCOCC1)n1c(C(=O)OC)cc2occc21 (stereo unspecified),-5,i,-7,4,8,-8,2,x,
O=C(COC(=O)CCCOc1ccccc1)NNC(=O)c1ccc([N+](=O)[O-])cc1,-4,x,-2,-14,-2,1,2,-57,
CCC(C)(C)NC(=O)/C=C/c1ccc(OC)c(S(=O)(=O)N2CCOCC2)c1,x,i,2,-8,0,0,2,-8,
CC1CCCC(NC(=O)COC(=O)c2ccc(S(=O)(=O)N3CCOCC3)cc2)C1C (stereo unspecified),-5,i,-7,-4,-8,-8,-1,x,
O=C(Cc1csc(Nc2nc(=S)[nH]c3ccccc23)n1)NCc1ccccc1Cl,-24,i,x,2,12,6,4,x,
CCCNC(=O)N(C)C[C@@H]1Oc2ncc(Br)cc2C(=O)N([C@H](C)CO)C[C@@H]1C,-22&-11,x,x,x,x,0,1,-58,
CCOc1ccc(C(C)=O)cc1CN1C(=O)NC2(CCCCC2C)C1=O (stereo unspecified),3,i,-10,-1,-8,4,10,-85,
CCOCCOC(=O)c1ccc(NC(=O)c2cc(OC)c(OC)c(OC)c2Br)cc1,0,i,0,-12,-14,3,3,2,
O=C(CSc1ncccn1)Nc1cccc2ccccc12,-13,i,3,-2,6,1,-2,8,
CCc1nnc(NC(=O)C2(C)COC(c3ccccc3)OC2)s1 (stereo unspecified),x,i,5,4,-7,2,7,-3,
O=C(CCC(=O)Nc1ccc(F)cc1)N/N=C/c1ccncc1,x,i,-15,-15,5,0,3,9,

# By substructure, those above containing a thiophene ring, fused or not (ten)
SMILES,UUG fidelity,Rce1 inhib,CSC inhib,PABP polyA inh,eIF4H inh,MT1-MMP act inh,MT1-MMP act inh RFP,HIV Env fusion,others
COC(=O)c1c(NC(=O)COC(=O)Cn2cnc3ccccc32)sc2c1CCCC2,-25,i,5,10,-9,2,1,-2,
O=C(CCC(=O)N(CC(=O)NC1CCCCC1)Cc1cccs1)Nc1ccccn1,x,i,-17,17,3,-5,-5,-50,
Cc1sc2ncnc(OCC(=O)NC3CCS(=O)(=O)C3)c2c1C (stereo unspecified),-3,i,0,-2,-5,1,5,-8,
Cc1noc(C)c1CSc1ncnc2sc3c(c12)CCC(C)C3 (stereo unspecified),x,i,55,-4,-8,x,x,x,
Clc1cnc(N/N=C/c2cccs2)c(Cl)c1,x,i,x,0,-10,-1,-4,x,
O=C(c1cccs1)n1nc(-c2ccccc2)nc1NCc1ccc(F)cc1,x,x,-4,-2,-4,-4,-9,-4,
CCOC(=O)c1c(NC(=O)/C=C/c2ccco2)sc(C)c1C,-18,i,2,-4,-2,1,0,-9,
Cc1ccn2cc(CNS(=O)(=O)c3ccc(Cl)s3)nc2c1,-16,i,-2,8,26,2,0,18,
COCCNc1nc(NCCOc2ccccc2Cl)c2sccc2n1,0,x,x,x,x,4,-10,11,
CCC(C)(c1ccc(C(=O)OC)s1)c1ccc(C(=O)OC)s1,-11,i,-9,12,7,1,-3,18,

# A portion of the library; count on the stated rates, not on these rows.
